ALR H2O2 inh: inhibitors of human ALR sulfhydryl oxidase, primary screen, biochemical, H2O2 detection, HRP-luminol luminescence, single point; FAD-linked sulfhydryl oxidase ALR (Homo sapiens), P55789; inhibition, % (no concentration beside the values); purified ALR, DTT oxidation; 3.8% of 290,000 active;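 active = mean and each replicate at 75% or more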;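 also: stock transfer was 7.5 nL into about 7.5 µL; 0% = neutral wells and 100% = wells with inactivated enzyme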
Target sequence (P55789 whole entry, looked up): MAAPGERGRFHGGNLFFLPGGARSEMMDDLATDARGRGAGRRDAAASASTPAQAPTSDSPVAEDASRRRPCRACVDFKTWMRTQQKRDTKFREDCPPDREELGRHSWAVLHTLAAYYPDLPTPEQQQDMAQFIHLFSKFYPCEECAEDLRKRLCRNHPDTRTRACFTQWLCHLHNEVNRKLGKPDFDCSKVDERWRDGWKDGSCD
HNF4A DNA FP: change in binding of human HNF4A to DNA, primary screen, biochemical, fluorescence polarization, FITC-DNA | Hepatocyte nuclear factor 4-alpha (Homo sapiens), P41235 | 1 h | activity change, % at 10 µM | 0.3% of 360,000 active; in the data active = activity change above about 30%, passing the limit was not always enough;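 also: controls were the assay level and a saturating level of protein; the project sought stronger binding though the title names inhibitors; some compounds called inactive have numbers as strong as hits; positive values seem to mean higher polarization but the record does not say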
Target sequence (P41235 whole entry, looked up): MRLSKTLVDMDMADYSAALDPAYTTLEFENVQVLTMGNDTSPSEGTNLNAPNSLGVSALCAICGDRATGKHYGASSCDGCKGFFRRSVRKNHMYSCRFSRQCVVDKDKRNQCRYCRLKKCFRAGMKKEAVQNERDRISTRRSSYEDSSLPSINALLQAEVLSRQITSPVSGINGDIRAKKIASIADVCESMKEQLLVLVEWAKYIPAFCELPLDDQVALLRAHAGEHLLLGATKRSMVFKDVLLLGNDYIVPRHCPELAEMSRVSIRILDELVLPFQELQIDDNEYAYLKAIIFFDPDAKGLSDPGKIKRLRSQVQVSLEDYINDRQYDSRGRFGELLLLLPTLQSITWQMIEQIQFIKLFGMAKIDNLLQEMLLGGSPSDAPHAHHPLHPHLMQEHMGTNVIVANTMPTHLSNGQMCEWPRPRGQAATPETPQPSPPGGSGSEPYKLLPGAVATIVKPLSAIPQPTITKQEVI
Ecoli growth: E. coli growth inhibition, primary screen, OD600; Escherichia coli growth, 23 h; hits give low values; OD600 absorbance (concentration not given with the values); 0.21% of 330,000 active;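 active = OD600 absorbance below the run mean of sample wells minus 3.6 SD, in any replicate, cut at about 0.56 in these data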;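 also: stock transfer was 300 nL into about 60 µL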
AF4-AF9 inh: inhibitors of AF4 peptide binding to AF9, primary screen, biochemical, AlphaScreen, biotin-AF4 peptide, FLAG-AF9, single point; Protein AF-9 (Homo sapiens), P42568; inhibition, % at 10 µM; 0.47% of 350,000 active; AID 651704, 2012;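 active = every replicate reaching a set inhibition limit, whatever the replicate mean, cut at about 25% in these data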;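 also: 0% = plate neutral control median and 100% = total signal loss; the record names both 10 and 1 µM as test concentration; the first replicate is given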
FGF22 binding: binders of human FGF22 protein, primary screen, FGF22 synaptogenesis inhibitor project, biophysical, thermal shift, single point | Fibroblast growth factor 22 (Homo sapiens), Q9HCT0 | recombinant FGF22 thermal shift, SYPRO orange fluorescence; percent of sucrose octasulfate shift, DMSO zero | calls only at 9.99 µM | 1.5% of 340,000 active | AID 651658, 2012;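 active = melting point raised past a set limit in the mean and every replicate; three in four hits are not shown here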
Target sequence (Q9HCT0 whole entry, looked up): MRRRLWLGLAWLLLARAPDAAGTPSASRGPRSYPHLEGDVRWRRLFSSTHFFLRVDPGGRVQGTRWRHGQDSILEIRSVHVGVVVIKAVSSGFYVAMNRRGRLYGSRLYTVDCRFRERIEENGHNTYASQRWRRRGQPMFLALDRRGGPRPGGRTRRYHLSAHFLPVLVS
Ecoli rRNA inh: reduced GFP signal of wild-type E. coli, primary screen, bacterial rRNA inhibitor project, GFP/RFP fluorescence, OD600, single point; GFP signal change (wild-type ribosome), % (no concentration beside the values); AID 720706, 2013; 1.6% of 350,000 active; E. coli WT GFP vs humanized-ribosome RFP mutants, 24 h; hits give low values; DMSO median 0, no signal -100;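 active = significant combined selectivity score with lowered wild-type GFP, culture density cut under 30%, mutant RFP and density less affected; inactive = any of these conditions unmet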; also: one replicate is shown; some compounds called inactive have numbers as strong as hits
Vif TR-FRET: inhibitors of Vif binding to APOBEC3G peptide, primary screen, biochemical, TR-FRET, GST-Vif 1-94, biotin-A3G peptide, dose response retest (AID 1117319) | 0.57% of 260,000 active | TR-FRET GST-Vif / biotin-A3G peptide binding; higher % means a stronger effect; test concentration not given here; strong numbers were not always called active | inhibition, %; hits with a dose series show IC50 in µM;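 active = above the screen mean plus three standard deviations and confirmed in dose response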;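 also: Vif residues 1-94 fused to GST binding biotinylated APOBEC3G peptide 110-148; 0% = full assay without inhibitor and 100% = GST in place of GST-Vif; retest series ran down from 100 µM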
Ecoli rRNA inh OD600: also measured in Ecoli rRNA inh; calls as there; OD600 change, %; measured here: OD600 growth;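 optical density of the mix in the first replicate; 0 = DMSO median and -100 = no signal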
Ecoli rRNA inh RFP: recorded beside Ecoli rRNA inh, whose call it bears; RFP signal change, %; measured here: RFP humanized mutant strains;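 first replicate; 0 = DMSO median and -100 = no signal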
* marks the source's active call; other numbers are inactive results; i = inactive; nt = not tested or not shown. These rows are one share of the data; count on the stated rates, not on these rows.

Results follow in this order: ALR H2O2 inh | HNF4A DNA FP | Ecoli growth | AF4-AF9 inh | FGF22 binding | Ecoli rRNA inh | Ecoli rRNA inh OD600 | Ecoli rRNA inh RFP | Vif TR-FRET
O=C(C1CC(=O)N(c2ccc(Cl)cc2)C1)N1CCOCC1 (centres undefined)
  nt | -1.4 | 0.692 | 0.9 | i | 1.6 | 2.7 | -1.2 | nt
Cc1nonc1OCCN1CCN(c2ccc([N+](=O)[O-])cc2)CC1
  nt | 3.1 | 0.67 | 4.2 | i | -23.0* | -15.9* | -1.3* | nt
O=C(O)c1ccc(CSC2CCCCC2)cc1
  nt | -0.8 | 0.686 | -1.4 | i | 5.5 | 3.0 | 0.9 | nt
O=C(CN1c2cccc3cccc(c23)S1(=O)=O)Nc1cccc(S(=O)(=O)N2CCOCC2)c1
  -34.5 | -2.9 | 0.731 | -2.2 | i | -8.4 | -4.6 | 1.6 | nt
N#CCCn1c(SCC(=O)Nc2ccc(N3CCOCC3)cc2)nc2ccccc21
  98.8* | 0.2 | 0.715 | 4.3 | i | nt | nt | nt | 17.2%
CSc1ncccc1C(=O)NC(C)CCc1ccccc1 (centres undefined)
  0.9 | -2.6 | 0.673 | -2.7 | i | 14.3 | 13.9 | 1.6 | 7.4%
O=S(=O)(c1ccc2ccccc2c1)N1CCNCC1
  -12.3 | 2.2 | 0.651 | nt | nt | nt | nt | nt | nt
Cc1noc(C)c1NC(=O)N(C)C[C@H]1Oc2ccc(NS(C)(=O)=O)cc2C(=O)N([C@@H](C)CO)C[C@H]1C
  nt | nt | nt | -0.2 | i | 2.5 | 4.1 | -0.8 | nt
O=S(=O)(c1ccc(Oc2ccc(Br)cc2)cc1)N1CCOCC1
  -1.2 | -1.9 | 0.745 | nt | nt | nt | nt | nt | 8.3%
O=C(c1cc(=O)c2ccccc2o1)N1CCN(c2ccccc2F)CC1
  4.4 | -3.3 | 0.73 | -4.3 | i | -9.6 | -8.5 | 1.9 | -10.8%
CCc1ccc(NC(=O)NCCCN2CCCC2=O)cc1
  -5.0 | -0.6 | 0.705 | -2.1 | i | 2.8 | 10.5 | -0.9 | -5.0%
Cc1cc(N2CCN(C(=O)c3ccco3)CC2)c2ccccc2n1
  -2.9 | 1.6 | 0.572 | 0.9 | i | 6.3 | 5.5 | 1.0 | -3.5%
CN(C)S(=O)(=O)c1ccc(C(=O)NCc2nnc(SCC(=O)NCc3ccco3)o2)cc1
  1.6 | 5.0 | 0.659 | 0.4 | i | 0.7 | 1.0 | 0.9 | 12.7%
Cc1cccc2c1c1ccc3c(c1n2C)C(=O)C=CC3=O
  nt | 18.3 | nt | -2.3 | i | -2.9 | 1.0 | 1.9 | 7.63µM*
CCOC(=O)C1=C(C)NC2=C(C(=O)CCC2)C1c1coc2ccccc2c1=O (centres undefined)
  -15.3 | 1.2 | 0.69 | 16.4 | i | 1.3 | -0.5 | 3.8 | 3.5%
COc1ccc(CNC(=S)NCc2ccc(Cl)cc2)cc1OC
  -5.1 | -0.4 | 0.689 | 1.6 | i | -25.5 | -27.0 | 1.3 | nt
C[C@H]1CN([C@@H](C)CO)C(=O)Cc2cc(NC(=O)CCCCCC(=O)Nc3ccccc3N)ccc2O[C@H]1CN(C)CC1CCCCC1
  nt | nt | nt | 0.5 | i | -2.5 | 0.9 | -6.2 | nt
CCOC(=O)C1CCN(C(=O)COC(=O)c2nn(C)c(=O)c3ccccc23)CC1
  nt | -2.8 | 0.644 | -9.2 | i | 9.7 | 0.3 | 2.9 | 6.8%
CCN1CCN(C(c2nnnn2Cc2ccc3c(c2)OCO3)C(C)C)CC1 (centres undefined)
  -7.4 | -3.5 | 0.696 | nt | nt | nt | nt | nt | 5.0%
COc1ccc(NC(=O)N2C[C@@H]3[C@H](c4ccccc42)[C@H](CO)N3C(=O)C2CCCC2)cc1
  nt | nt | nt | -2.7 | i | 1.2 | 4.0 | 0.3 | nt
CCOC(=O)c1c(C)[nH]c(C)c1S(=O)(=O)N(C)CC(=O)NCc1ccc(C)cc1
  0.7 | 2.0 | 0.719 | 3.9 | i | 0.6 | -6.6 | -0.3 | nt
CCC(C)Sc1nc2c(cnn2-c2ccc(C)c(C)c2)c(=O)[nH]1 (centres undefined)
  nt | 0.5 | 0.741 | 2.2 | i | 6.6 | 6.3 | 3.1 | 2.6%
Cc1ccc(C)c(Cn2c(=O)c3c(nc4n3CCN4Cc3ccco3)n(C)c2=O)c1
  nt | 4.9 | 0.746 | nt | nt | nt | nt | nt | 2.9%
CCOc1ccc(S(=O)(=O)N2CCC(C(=O)NCc3cccnc3)CC2)cc1C
  0.9 | -1.8 | 0.647 | 3.0 | i | -2.5 | -1.7 | -0.8 | 1.1%
Cc1ccc(C)c(NC(=O)CN(C)C(=O)c2ccc(COc3ccccc3)cc2)c1
  nt | 3.4 | nt | -1.9 | i | 3.2 | -5.7 | -1.5 | nt
Cc1c(Cc2ccccc2)c(=O)oc2cc(O)cc(O)c12
  77.6* | 3.0 | 0.63 | -1.3 | i | -56.3 | -75.8 | -10.9 | -5.5%
Cc1nc2ccccc2c(=O)n1-c1ccc(NS(=O)(=O)c2ccc(F)cc2F)cc1
  -10.6 | -1.4 | 0.697 | 1.1 | nt | -6.7 | -14.2 | -0.3 | 4.6%
C=CCOc1c(Br)cc(CNCCCN2CCOCC2)cc1OC
  -10.6 | 2.0 | 0.696 | 3.0 | i | 3.9 | -2.1 | -1.2 | nt
Cc1ccc(S(=O)(=O)NC(=O)c2ccc(F)cc2)c(C)c1
  -17.0 | 2.8 | 0.683 | -5.8 | i | 6.2 | -1.3 | -4.2 | nt
Cc1ccc(S(=O)(=O)N(C)C[C@H]2Oc3ccc(NC(=O)NC4CCCCC4)cc3C(=O)N([C@@H](C)CO)C[C@H]2C)cc1
  nt | nt | nt | 1.4 | i | -2.1 | -9.9 | -6.9 | nt
Cc1nn(C2CCS(=O)(=O)C2)c(Cl)c1/C=C/C(=O)OCC(=O)Nc1ccc2c(c1)OCO2 (centres undefined)
  -4.6 | 1.0 | 0.632 | 0.4 | i | -17.2 | -12.1 | -3.7 | -0.8%
Cc1ccc(C(=O)Nc2ccc(Br)cc2)cc1S(=O)(=O)Nc1ccccn1
  5.8 | 2.1 | 0.675 | nt | nt | nt | nt | nt | nt
CCOC(=O)N1CCN(C(=O)/C(=C/c2ccc(Cl)cc2)NC(=O)c2ccccc2)CC1
  -7.6 | 2.6 | 0.682 | 1.5 | i | 1.9 | -3.8 | 0.6 | -8.3%
O=C(CS(=O)(=O)c1c[nH]c2ccccc12)N1CCCCCC1
  -15.1 | 3.6 | 0.715 | -0.7 | i | 1.3 | -2.2 | 1.5 | -3.6%
CN(C)c1nc(=S)nc(NCc2ccccc2)[nH]1
  27.7 | 1.0 | 0.677 | -3.7 | i | -1.0 | 4.5 | 0.9 | -4.1%
CCc1cc(C(=O)Nc2ccc(S(=O)(=O)NC3=NCCCCC3)cc2)sc1C
  59.0 | -20.9 | 0.662 | -1.4 | i | -6.8 | -15.1 | 0.6 | -5.0%
Cc1ccc(S(=O)(=O)N2C[C@@H](O)COC[C@@H]3O[C@@H](CC(=O)NCC4CCCCC4)CC[C@H]32)cc1
  nt | nt | nt | 20.0 | i | -3.0 | -1.1 | 8.2 | nt
Cc1ccc(NC(=S)N2CCN(S(C)(=O)=O)CC2)cc1C
  -7.7 | -1.0 | 0.698 | -0.1 | i | 0.1 | 9.1 | -0.8 | nt
Cc1ccc2c(c1)[C@H]1[C@H](CO2)[C@H](c2ccccc2)[C@]2(C)C(=O)N(Cc3ccco3)CC(=O)N12
  -3.4 | 2.7 | nt | 3.3 | i | -1.6 | -2.3 | -1.6 | nt
O=C(Cc1ccccn1)NCC[C@H]1CC[C@@H](NC(=O)Nc2ccc(Cl)cc2)[C@H](CO)O1
  nt | nt | nt | -19.6 | i | 0.5 | -2.3 | 3.0 | nt

Complete entries as entered above. Order of values: ALR H2O2 inh, HNF4A DNA FP, Ecoli growth, AF4-AF9 inh, FGF22 binding, Ecoli rRNA inh, Ecoli rRNA inh OD600, Ecoli rRNA inh RFP, Vif TR-FRET
Record of `Cc1ccc(C)c(NC(=O)CN(C)C(=O)c2ccc(COc3ccccc3)cc2)c1` → nt, 3.4, nt, -1.9, i, 3.2, -5.7, -1.5, nt
Record of `CCOC(=O)N1CCN(C(=O)/C(=C/c2ccc(Cl)cc2)NC(=O)c2ccccc2)CC1` → -7.6, 2.6, 0.682, 1.5, i, 1.9, -3.8, 0.6, -8.3%

Next section.
Results follow in this order: ALR H2O2 inh | HNF4A DNA FP | Ecoli growth | AF4-AF9 inh | FGF22 binding | Ecoli rRNA inh | Ecoli rRNA inh OD600 | Ecoli rRNA inh RFP | Vif TR-FRET
COCc1c(C(=O)N/N=C/C2CC=CCC2)nnn1-c1nonc1N (centres undefined)
  -6.8 | 0.1 | nt | -0.7 | i | 16.4 | 7.2 | -0.8 | -6.5%
O=C(Nc1cccc(-c2csc(Nc3cccc(C(F)(F)F)c3)n2)c1)c1ccccc1
  2.9 | 0.3 | nt | -3.2 | i | -10.2 | -3.7 | -1.6 | nt
O=C(C[C@@H]1CC[C@@H]2[C@H](COC[C@H](O)CN2Cc2ccc(C(F)(F)F)cc2)O1)N1CCc2ccccc2C1
  nt | nt | nt | 4.3 | i | -3.6 | -15.2 | 10.3 | nt
CC(C)c1ccc(Nc2ccc(C(=O)O)cc2[N+](=O)[O-])cc1
  8.5 | -2.4 | 0.706 | 0.0 | i | -4.2 | -7.0 | -0.4 | 5.8%
CCOc1cc(CN2CCN(c3ncccn3)CC2)ccc1OC
  nt | 2.0 | 0.648 | -1.1 | i | 7.0 | 2.6 | -4.2 | nt
Cc1ccc2cc3cc(C(=O)NCc4ccco4)oc3nc2c1
  -2.0 | 4.3 | 0.711 | nt | nt | nt | nt | nt | 6.2%
CCN(CC)CCNC(=O)CN1C(=O)CSc2ccc(S(=O)(=O)N3CCOCC3)cc21
  nt | -3.9 | nt | -1.4 | i | 1.9 | 6.6 | -4.6 | 2.9%
N/C(=N/OCC(=O)Nc1cccc2ccccc12)c1nonc1N
  -55.6 | 0.3 | nt | nt | nt | nt | nt | nt | -0.6%
Cc1ccc(NS(=O)(=O)c2ccc(C)c(C(=O)NCC(c3ccccc3)N(C)C)c2)cc1 (centres undefined)
  -2.7 | -0.4 | 0.707 | 6.0 | i | -5.1 | -21.0 | 2.8 | nt
CCOC(=O)C(C)n1cnc2scc(-c3ccc(C)cc3)c2c1=O (centres undefined)
  -1.1 | -1.1 | 0.689 | 1.2 | i | 3.5 | -2.8 | -0.2 | 1.7%
O=C(c1ccccc1)N1N=C(C(F)(F)F)CC1(O)c1ccccc1 (centres undefined)
  -2.4 | 4.8 | 0.641 | 2.3 | i | -12.3 | -19.4 | -0.9 | -9.8%
Cc1ccc(C(=O)N2CCN(c3ccc(NC(=S)NC(=O)Cc4ccccc4)cc3)CC2)cc1
  13.0 | -0.8 | 0.806 | nt | nt | nt | nt | nt | 2.0%
COc1ccccc1N1CCN(C2CCCN(C(=O)c3cc(C(C)C)on3)C2)CC1 (centres undefined)
  nt | -2.7 | nt | -5.7 | i | -0.3 | -2.7 | -5.8 | 6.0%
N#CC1=C(N)OC2=C(C(=O)CCC2)C1c1ccsc1 (centres undefined)
  18.5 | 0.0 | 0.746 | nt | nt | nt | nt | nt | 4.5%
Cc1ccccc1S(=O)(=O)Cc1ccc(C(=O)NCCCN2CCCC(C)C2)o1 (centres undefined)
  -8.5 | -0.9 | 0.716 | 2.2 | i | 16.0 | 5.1 | 3.2 | 0.3%

Screens from PubChem.
